StopGo reporter = lowers the luciferase signal of an FMDV 2A StopGo reporter. human cells with a luciferase reporter of 2A StopGo recoding; control for the full effect not named in the record. Potency, µM (highest dose often 57.9 µM), for the others: top-dose signal change, negative = less light. AID 1159524. 1.2% of 410,000 active; active = well fitted falling curve with a large enough effect; inconclusive = small, poorly fitted or top-dose-only effect; inactive = no such curve, though single readings can be large or run the other way; tested in HEK293T cells; further: on the % scale 0 is the no-effect control and ±100 the full control effect; nearly all actives have a fitted effect of over 45% in size; luciferase light after 4 h
Lassa entry inh = blocks Lassa virus binding to or entry into cells; Lassa virus pseudotype entry inhibition, cell reporter; control for the full effect not named in the record; Potency, µM (series often up to 37.9 µM), for inactives: top-dose activity change, negative = inhibition, most hits filed as inhibitors; 1.2% of 300,000 active; active means well fitted inhibition curve with a large enough effect; inconclusive means small, poorly fitted or top-dose-only effect, or effect the other way; inactive means flat fitted curve, though single readings scatter; tested in HEK293 cells; further: on the % scale 0 is the no-effect control and ±100 the full control effect; nearly all actives have a fitted effect of over 50% in size; luciferase read-out
NS1 inh = blocks influenza NS1 protein function | Potency, µM (doses to about 46.1 µM), for the others: top-dose activity, positive = more growth | 0.4% of 270,000 active | S. cerevisiae slowed by influenza A NS1, growth recovery by OD600; further: actives are rising curves; nearly all actives have a fitted effect of over 50% in size
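Recovery from NS1-induced slow growth read by OD600 in budding yeast switched to galactose assay medium (pH 6.0, -URA) at 1:100 dilution. Compound 23 nl per well; the matching strain lacking NS1 serves as control.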
SARS PLP yeast = blocks SARS-CoV papain-like protease in a yeast assay; Potency, µM (titrated, usually from 32.9 µM), for inactives: top-dose activity, positive = growth rescue; 0.19% of 330,000 active; S. cerevisiae expressing SARS-CoV PLpro, growth rescue; control for the full effect not named in the record; AID 485353; further: 0% is about no effect; nearly all actives have a fitted effect of over 55% in size; growth read by luminescence after 48 h
Cruzain Triton = cruzain (T. cruzi) inhibition with detergent; P25779; purified cruzain, Z-FR-AMC fluorescence, 0.01% Triton; Potency, µM, for inactives: max response, negative = inhibition, most hits filed as inhibitors; 0.43% of 200,000 active; active means well fitted curve in the direction sought with a large enough effect; inconclusive means small, poorly fitted or top-dose-only effect, or another doubt; inactive means no such curve, though single readings can be large; an effect the other way counts as inactive or inconclusive;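 further: plate controls were neutral wells for no effect and buffer without enzyme for full effect; nearly all actives have a fitted effect of over 40% in size; top concentration of the series not given in the record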
Target sequence (P25779 123-467 limits assumed): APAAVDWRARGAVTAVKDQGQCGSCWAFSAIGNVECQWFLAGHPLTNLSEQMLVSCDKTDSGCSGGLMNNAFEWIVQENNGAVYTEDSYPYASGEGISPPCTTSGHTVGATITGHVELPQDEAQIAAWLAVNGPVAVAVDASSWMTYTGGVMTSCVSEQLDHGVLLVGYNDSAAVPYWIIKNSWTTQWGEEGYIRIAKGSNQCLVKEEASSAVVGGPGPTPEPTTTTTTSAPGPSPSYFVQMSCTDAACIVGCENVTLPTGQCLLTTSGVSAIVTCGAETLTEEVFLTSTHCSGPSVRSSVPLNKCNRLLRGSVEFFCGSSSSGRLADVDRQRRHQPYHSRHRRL
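Enzyme 1.5 nM, Z-FR-AMC 2 uM, NaOAc 100 mM pH 5.5, DTT 5 mM, Triton X-100 0.01%; 15 min RT compound preincubation; kinetic ex360/em450, 60 s delta.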
RE007 growth inh = less growth of the S. pombe RE007 Vpr strain; S. pombe RE007 Vpr strain, BacTiter-Glo ATP luminescence, 24 h; control for the full effect not named in the record; Potency, µM (highest dose often 92.2 µM), inactives show top-dose activity change, negative = less growth; 0.21% of 360,000 active; active = well fitted falling curve with a large enough effect; inconclusive = small, poorly fitted or top-dose-only effect; inactive = no such curve, though single readings can be large or run the other way;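 further: on the % scale 0 is the no-effect control and ±100 the full control effect; nearly all actives have a fitted effect of over 50% in size; the assay follows cell death caused by Vpr and the record does not say whether a fall means rescue or toxicity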
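Fission yeast RE007 carrying one integrated HIV-1 vpr copy, seeded at OD 0.01 in PMG+AL medium with 23 nL pinned compound. Grown 24 h at 30 degrees; viability read by BacTiter-Glo luminescence after 5 min.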
Cruzain inh noDet = inhibitors of Trypanosoma cruzi cruzain without detergent | P25779 | Potency, µM, for the others: max response, negative = inhibition, actives largely listed as inhibitors | AID 1476 | purified cruzain, Z-FR-AMC fluorescence, no detergent | 2.3% of 200,000 active; active means well fitted curve in the direction sought with a large enough effect; inconclusive means small, poorly fitted or top-dose-only effect, or another doubt; inactive means no such curve, though single readings can be large; an effect the other way counts as inactive or inconclusive;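 further: plate controls were enzyme without inhibitor for no effect and buffer without enzyme for full effect; nearly all actives have a fitted effect of over 40% in size; top concentration of the series not given in the record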
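Purified cruzain at 1.5 nM, pre-incubated 15 min with compound at room temperature in 100 mM sodium acetate pH 5.5, 5 mM DTT, 0.00005% Triton X-100. Reaction started with 2 uM Z-FR-AMC; AMC fluorescence increase over 60 s gives rate.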
MARV entry inh = blocks Marburg virus binding to or entry into cells | Marburg virus pseudotyped entry inhibition, cell reporter; control for the full effect not named in the record; about a third of the inactives were read at about 46 µM | Potency, µM (series often up to 37.8 µM), for inactives: at the highest dose activity change, negative = inhibition, most hits filed as inhibitors | 1.8% of 300,000 active; active = well fitted inhibition curve with a large enough effect; inconclusive = small, poorly fitted or top-dose-only effect, or effect the other way; inactive = flat fitted curve, though single readings scatter; tested in HEK293 cells; about a fifth of its hits are not listed in these tables; further: on the % scale 0 is the no-effect control and ±100 the full control effect; luciferase read-out
* hit, by the source's call; ? = inconclusive; / = no result given; [ ] = remark or other dose. Unless noted, the call rests on the fitted dose curve; in most records, active means well fitted rising curve with a large enough effect; inconclusive means small, poorly fitted or top-dose-only effect; inactive means no such curve, though single readings can be large or run the other way. Potency means the concentration at half of the fitted maximal effect.

SMILES	StopGo reporter	Lassa entry inh	NS1 inh	SARS PLP yeast	Cruzain Triton	RE007 growth inh	Cruzain inh noDet	MARV entry inh
COCC(=O)N(Cc1cc2cc(C)ccc2[nH]c1=O)c1ccc(C)c(C)c1	16%	-12%	-3%	-1%	/	8%	/	?
COc1ccc(-c2nn(-c3ccc(F)cc3)c3c2cnc2cc4c(cc23)OCO4)cc1	17%	25%[46.1 µM]	/	/	0.6%	/	19%	/
O=C1CC(c2ccccc2)=Nc2ccccc2N1Cc1ccccc1	-7%	5%	/	-8%	/	9%	/	-4%[46.1 µM]
CC1(C)NC(=O)N(CC(=O)OCC(=O)Nc2sccc2C#N)C1=O	-1%	1%	/	2%	/	14%	/	11%
CC(C)(C)OC(=O)COc1ccc(/C=N/NC(=O)CN2CCCCC2)cc1	30%	/	0%	2%	/	-3%	/	/
CCN(C(=O)c1cn(CC)c(=O)c2cc(OC)c(OC)cc12)c1ccc(C)c(C)c1	-13%	-18%[46.1 µM]	/	/	-2.4%	/	14%	-14%[46.1 µM]
CN(C)c1ccc(CN(C(=O)/C=C/c2ccccc2Cl)C2CCS(=O)(=O)C2)cc1 (stereo unspecified)	4%	/	22%	-2%	/	-2%	/	/
CC(C)(O)C#Cc1ccc(CN2CCN(Cc3ccccc3)C(CCO)C2)cc1 (stereo unspecified)	-1%	?	10%	0%	/	2%	/	?
COc1ccccc1Cc1nc2ccccc2nc1SCC(=O)N1CCC(C)CC1	-11%	-9%[46.1 µM]	/	/	-3.3%	/	-3%	/
O=C(NCCc1ccc(Cl)cc1)c1ccc(CNc2c(N3CCOCC3)c(=O)c2=O)cc1	7%	/	-4%	0%	/	-1%	/	/
C#CCOCCOCCOCCNc1nc(N2CCN(C(=O)[C@H](Cc3ccc(O)cc3)n3cc([C@@H](N)C(C)CC)nn3)CC2)nc(N2CCN(C(=O)[C@H](Cc3cc4ccccc4[nH]3)n3cc([C@@H](N)C(C)CC)nn3)CC2)n1 (stereo partly specified)	-14%	/	2%	0%	/	25%	/	/
Cc1cc(-c2ccccc2)n(-c2ccc(C(=O)NC(C)C)cc2)n1	-23%	-10%	19%	-6%	12%	0%	10%	?
N#Cc1cccc(NC(=O)c2cc3c(s2)-c2ccc(Cl)cc2SC3)c1	?	2%[46.1 µM]	/	/	-7.9%	/	-23%	29%[46.1 µM]
CCN(CC)CCN(C(=O)c1ccc2c(c1)CCCC2)c1nc2ccc(F)cc2s1	-19%	12%[46.1 µM]	/	2%	/	0%	/	?
NC(=O)C1(N2CCCCC2)CCN(S(=O)(=O)c2cc(Cl)ccc2Cl)CC1	-8%	/	-10%	-8%	-1.3%	-13%	-13%	/
Brc1ccc(-c2nn3c(-c4ccncc4)nnc3s2)o1	/	/	-27%	2%	-2.6%	/	-10%	0%
Cc1cnc(NC(=O)Nc2ccc(OCc3ccccc3)cc2)c(Br)c1	5%	25%[46.1 µM]	1%	0%	/	-2%	/	?
COc1ccccc1-n1ccnc1SCC(=O)NC(C)(C)C	-1%	0%	/	1%	/	-4%	/	15%
NS(=O)(=O)c1ccc(CCNS(=O)(=O)c2ccccc2)cc1	-1%	-6%[46.1 µM]	0%	0%	/	75%	/	-17%[46.1 µM]
O=C(Cc1ccccc1)OCCN1CCCCC1	-9%	7%	-2%	3%	1.4%	-15%	-3%	4%
Oc1ccc2oc3c(c2c1C=NCc1ccncc1)CCCC3	0%	?	-32%	0%	/	-2%	/	4%[46.1 µM]
COc1ccc(C)cc1N(CC(=O)N1CCOCC1)S(C)(=O)=O	-2%	?	-11%	-3%	/	-18%	/	?
O=C(NCC1CCCO1)c1nn2c(C(F)(F)F)cc(-c3ccc(Br)o3)nc2c1Br (stereo unspecified)	-26%	-8%[46.1 µM]	7%	1%	/	9%	/	11%[46.1 µM]
CCOC(=O)c1c(C)[nH]c(C)c1C(=O)CSc1nnc(-c2ccncc2)n1C	6%	7%	-5%	3%	1.1%	28%	-10%	8%
COc1ccc(C(C)=O)cc1COC(=O)c1cccc(N(C)C)c1	-7%	?	-5%	1%	-8.1%	19%	8%	?
Later entries.
SMILES	StopGo reporter	Lassa entry inh	NS1 inh	SARS PLP yeast	Cruzain Triton	RE007 growth inh	Cruzain inh noDet	MARV entry inh
CCOc1ccccc1NC(=O)CSc1nc2cc(O)ccc2c(=O)n1-c1ccc(OC)c(OC)c1	?	/	8%	-1%	/	1%	/	/
O=C(NCc1cccc(Cl)c1)C1CCC(=O)N(CCN2CCOCC2)C1 (stereo unspecified)	-13%	8%	-4%	0%	/	3%	/	0%
Cn1c(Cn2nnc3ccccc32)nnc1SCC(=O)N1CCc2ccccc21	/	3%	-2%	11%	3.1%	-9%	0%	-25%
COc1ccccc1OC(C)C(=O)NCC1(N2CCOCC2)CCCCC1 (stereo unspecified)	-8%	5%[46.1 µM]	/	/	0.9%	/	-8%	?
CC(C)Oc1ccccc1C(=O)NC(CO)C(=O)O (stereo unspecified)	-1%	2%	1%	0%	/	-10%	/	6%[46.1 µM]
COc1cccc(N2CCN(S(=O)(=O)c3ccc4nc(-c5ccccc5)[nH]c4c3)CC2)c1	?	-17%	4%	2%	1.4%	-26%	?	2%[46.1 µM]
CC(C)Cc1nn2cc(-c3cccc(Br)c3)nc2s1	-11%	?	/	/	-6.3%	/	2%	?
S=C(NC1CCCCC1)N1CCc2[nH]c3ccccc3c2C1	7%	22%	-2%	0%	/	3%	/	-6%
Oc1cc2ccccc2cc1-c1n[nH]c(=S)n1Cc1ccco1	-5%	/	-1%	-1%	/	3%	/	/
C/C(Cc1ccccc1)=N\NC(=O)c1cc(C(C)(C)C)[nH]n1	6%	/	/	-2%	/	-3%	/	16%[46.1 µM]
COC(=O)CCSc1nc2sc3c(c2c(=O)n1Cc1ccccc1)CCC(C(C)(C)C)C3 (stereo unspecified)	17%	-25%[46.1 µM]	/	/	-3.8%	/	-14%	/
CCOC(=O)c1[nH]c2ccccc2c1NC(=O)c1ccc(S(=O)(=O)N2CCCCC2)cc1	-27%	?	-25%	24%	-2.0%	11%	5%	-24%
COc1ccccc1N1CCN(C(=O)c2ccc3c(c2)CCN3S(=O)(=O)c2ccccc2)CC1	?	-27%[46.1 µM]	11%	-5%	-3.8%	-8%	?	?
Cc1ccc(C(=O)NNC(=O)C2CCCN(c3ncccn3)C2)cc1 (stereo unspecified)	/	-11%	3%	-2%	3.5%	3%	-4%	-1%
COc1ccc(-c2c(C)cc3oc(=O)cc(-c4ccccc4)c3c2C)cc1OC	?	/	/	4%	-0.1%	-17%	-26%	/
CCOC(=O)C1C(=O)NC(SCC(=O)OC)=C(C#N)C1c1ccccc1OCC (stereo unspecified)	-18%	25%	-57%	/	-0.7%	-7%	7%	-1%
O=C(Cc1ccccc1)c1ccc2c(c1)OCCO2	44%[activator]	-3%[46.1 µM]	-3%	-2%	/	1%	/	?
Cc1ccc(-c2cc(C(=O)OCC(=O)Nc3ncc(C(F)(F)F)cc3Cl)c3ccccc3n2)cc1	2%	?	0%	-24%	-2.8%	1%	?	0%
CCOc1ccccc1NC(=O)CSc1nnc(Cn2c(=O)sc3ccccc32)n1C	-20%	/	-10%	?	-3.6%	5%	0%	/
O=C(O)CSCc1cn2cc(Cl)ccc2n1	-5%	?	1%	-3%	2.1%	-3%	-1%	7%
CC(C)c1ccccc1NC(=O)COC(=O)Cc1ccsc1	-3%	-5%	1%	-2%	-2.7%	-24%	-2%	20%
COC(=O)c1ccc(CS(=O)(=O)c2ccc(C)cc2)o1	-8%	/	3%	-1%	/	-4%	/	/
O=c1cc(-c2ccc([N+](=O)[O-])cc2)c2ccc(O)cc2o1	-17%	6%	/	-1%	/	18%	/	?
COC(=O)CC1Oc2ccc(C)cc2NC1=O (stereo unspecified)	-7%	/	-8%	1%	0.3%	-7%	-4%	/
OC(COc1ccc(CN2CCSCC2)cc1)CN1CCCCC1 (stereo unspecified)	3%	/	2%	-1%	/	-18%	/	/

Limited to Lassa entry inh, for some of the entries so far:
mol,Lassa entry inh
CCOC(=O)C1C(=O)NC(SCC(=O)OC)=C(C#N)C1c1ccccc1OCC (stereo unspecified),25%
O=C(Cc1ccccc1)c1ccc2c(c1)OCCO2,-3%[46.1 µM]
Cc1ccc(-c2cc(C(=O)OCC(=O)Nc3ncc(C(F)(F)F)cc3Cl)c3ccccc3n2)cc1,?

Next section
SMILES	StopGo reporter	Lassa entry inh	NS1 inh	SARS PLP yeast	Cruzain Triton	RE007 growth inh	Cruzain inh noDet	MARV entry inh
CCOc1cc(S(=O)(=O)N(Cc2ccccc2)Cc2ccccc2)c(OCC)cc1-n1cnnn1	-9%	-53%[14.3 µM]	17%	6%	-1.6%	0%	-9%	21µM*
Cc1ccc(C(=O)Nc2ccc3c(c2)C(=O)N(C)C3=O)c(C)c1	54%[activator]	/	-26%	-10%	/	-7%	/	/
O=C(C1CCCN1S(=O)(=O)c1cccc2cccnc12)N1CCc2ccccc2C1 (stereo unspecified)	-11%	/	-46%	-4%	-2.1%	-3%	-9%	0%
Cc1csc(Sc2ccc(S(=O)(=O)N3CCCC3)cn2)n1	9%	2%	/	-6%	/	9%	/	?
COc1ccc(Cl)cc1NC(=O)CSc1cn(CC(=O)N2CCCCCC2)c2ccccc12	?	?	/	/	-5.2%	/	?	/
CC(=O)c1c(OC(=O)c2cccc(Cl)c2)c2ccccc2n1C	0%	/	-6%	0%	/	-11%	/	/
OC(CCCCN1CCCCC1)c1ccccc1 (stereo unspecified)	12%	15%	6%	0%	0.7%	-8%	-15%	8%
Cc1cc(C)nc(-n2nc(C)cc2NC(=O)c2ccc(F)cc2F)n1	4%	-2%[46.1 µM]	/	6%	/	0%	/	?
COc1cc2c(cc1OC)-c1c(OC)c(OC)cc3c1C(C2)N(C)CC3 (stereo unspecified)	-14%	/	1%	3%	-0.6%	-2%	?	/
O=C(c1ccc(S(=O)(=O)N2CCOCC2)cc1)N1CCOCC1	-21%	-4%[46.1 µM]	7%	0%	/	1%	/	7%[46.1 µM]
